# Compound activity from PubChem.
# Rce1 inhib – yeast Rce1p protease inhibitors, primary screen, biochemical, fluorescence, cell-free homogeneous; CAAX prenyl protease 2 (Saccharomyces cerevisiae (strain ATCC 204508 / S288c)), Q03530; yeast membranes, quenched prenylated peptide cleavage fluorescence; calls only; actives 0.27% (n = 290,000); AID 2563, 2010;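 active = fall in fluorescence gain of 50% or more versus controls, with final raw signal at or below 3038400; inconclusive = same 50% fall but final raw signal above 3038400; inactive = fall in fluorescence gain under 50%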;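 also: plate controls were neutral control wells for no effect and wells lacking membranes for full effect; tested at 10 µM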
# Target sequence (Q03530 whole entry, looked up): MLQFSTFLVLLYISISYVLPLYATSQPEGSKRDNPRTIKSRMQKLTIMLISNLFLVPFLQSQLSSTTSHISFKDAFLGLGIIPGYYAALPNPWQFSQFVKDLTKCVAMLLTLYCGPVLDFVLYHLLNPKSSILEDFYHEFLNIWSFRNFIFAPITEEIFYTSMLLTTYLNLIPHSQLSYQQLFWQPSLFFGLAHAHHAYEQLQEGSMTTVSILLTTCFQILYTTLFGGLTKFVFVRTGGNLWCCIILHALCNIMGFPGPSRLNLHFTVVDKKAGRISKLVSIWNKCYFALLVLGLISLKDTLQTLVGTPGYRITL
# MT1-MMP act inh – blockers of MT1-MMP proenzyme processing, primary screen, HT1080 RFP-PRO-GFP cells, GFP/RFP fluorescence | GFP/RFP ratio fluorescence, overnight; percent of plate control window, DMSO zero | actives 0.061% (n = 360,000) | GFP/RFP ratio change, % at 20 µM | AID 651647, 2012;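 active = GFP/RFP ratio change of at least 30% with cell ATP level not reduced by more than half and red fluorescence within 50% of control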; also: strong numbers were not always called active
#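 Read-out: GFP/RFP fluorescence ratio; Test system: RFP-PRO-GFP reporter HT1080 cells; Compound dosing: single-point 20 µM compound, 1% DMSO; Times: overnight compound exposure at 37 °C.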
# UUG fidelity – modulators of yeast start codon fidelity, primary screen, whole organism, S. cerevisiae, single point, plate reader; AID 602363, 2012; S. cerevisiae UUG-firefly luciferase reporter, luminescence/redox ratio; activity score, % at 18.7 µM; actives 0.13% (n = 350,000);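 active = replicate mean at a twofold rise or more, about +100% in these data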;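 also: firefly luciferase made from a UUG start codon reports start codon fidelity; reporter light over untreated wells divided by growth signal over untreated wells; some hits fall short of that in this replicate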
# HIV Env fusion – inhibitors of HIV-1 Env-driven cell-cell fusion, primary screen, HeLa-JRFL effector, CEM21 target cells, luciferase; AID 651610, 2012; actives 1.1% (n = 360,000); inhibition, % at 12.3 µM;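 active = mean replicate inhibition score of at least 50 and every replicate individually at or above 50; inconclusive = only one of the two criteria met; inactive = mean below 50 and not all replicates reaching 50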;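 also: 0% = plate neutral controls and 100% = maraviroc near 300 nM; one replicate is shown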
# PABP FP inh – PABP poly(A) RNA binding inhibitors, primary screen, biochemical, fluorescence polarization, uHTS; Polyadenylate-binding protein 1 (Homo sapiens), P11940; inhibition, % at 35 µM; actives 1% (n = 290,000);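 active = 50% or more with normal probe brightness, or confirmed in later tests; inconclusive = above 50% with abnormal brightness, or retests that disagree; inactive = below 50% or failed in later tests; about a fifth of its hits are not listed in these tables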;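 also: calls also rest on retests at 20 µM and on dose response follow-up; controls were probe without protein and protein plus probe with vehicle; some compounds called inactive have numbers as strong as hits; many hits fall short of the cut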
# eIF4H inh – human eIF4H binding inhibitors, primary screen, translation initiation inhibitor project, biochemical, uHTS, fluorescence polarization; actives 0.94% (n = 290,000); inhibition, % at 35 µM; eIF4H fluorescence polarization binding assay; Eukaryotic translation initiation factor 4H (Homo sapiens), Q15056;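 active = 50% or more with normal probe brightness, or confirmed in later tests; inconclusive = above 50% with abnormal brightness, or retests that disagree; inactive = below 50% or failed in later tests; about a fifth of its hits are not listed in these tables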;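 also: calls also rest on retests at 20 µM and on dose response follow-up; 0% = protein and probe with vehicle and 100% = probe without protein; strong numbers were not always called active; many hits fall short of the cut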
# CSC inhib – cancer stem cell viability inhibitors, primary screen, luminescence. cancer stem cell-like cells viability. inhibition, % at 7.5 µM. actives 1.1% (n = 300,000). AID 2717, 2010;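 active = mean at 75% or more and at least half the replicates too; inconclusive = mean and replicates disagree; tested in HMLE shEcad cells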;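 also: 0% = median of negative and 100% = median of positive control wells; the first replicate is given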
# eIF4H inh retest – further read-out of eIF4H inh, marked with its call; inhibition, %; compound at 20 µM; confirmation average;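 mean of two retest wells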
# PABP FP inh retest – second read-out of PABP FP inh, no call of its own (marks repeat the call); inhibition, %; compound at 20 µM; confirmation repeats;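 mean of two retest wells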
# MT1-MMP act inh RFP – recorded beside MT1-MMP act inh, whose call it bears; RFP signal change, %; measured here: RFP expression control read;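 0 = vehicle wells; hits needed this value within 50% of zero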
# Numbers without * were called inactive; i = inactive; ? = inconclusive; · = not tested or not shown. Rows are unselected; about 3% have a hit in one of these screens.
SMILES,Rce1 inhib,MT1-MMP act inh,MT1-MMP act inh RFP,UUG fidelity,HIV Env fusion,PABP FP inh,eIF4H inh,CSC inhib,others
O=C(CN1C(=O)NC(Cc2c[nH]c3ccccc23)C1=O)Nc1ccccc1Br (stereo unspecified),·,5,4,-6,-47,·,·,-10,
COC(=O)C1=C(C)N(Cc2ccc(C)cc2)C(=O)C1,i,-3,1,4,-1,-8,-11,-4,
Cc1ccc(S(=O)(=O)N2CCCCC2)cc1NC(=O)C1CCN(C(=O)OC(C)(C)C)CC1,·,3,-4,4,21,·,·,·,
COc1ccc(/C=C2\CCCC3C2=NN(C(=O)COC(=O)CNC(=O)c2ccccc2)C3c2ccc(OC)cc2)cc1 (stereo unspecified),i,11,-3,-13,-34,-6,-8,-9,
Cc1c(CC(=O)NCCC(=O)O)c(=O)oc2cc3oc4c(c3cc12)CCCC4,i,2,1,-13,7,4,0,-3,
CCN(c1ccccc1)S(=O)(=O)c1ccc(OC)c(NC(=O)CN(C)C)c1,i,-2,0,·,1,-10,5,4,
O=C(O)c1cc2cc(Oc3ccccc3)ccc2[nH]1,i,2,1,-11,25,-10,5,-5,
CCc1c(C(=O)NC2CCCc3ccccc32)[nH]c(C)c1C(C)=O (stereo unspecified),i,-8,-9,-10,-8,6,1,22,
CC(C)(C)C(=O)Nc1nnc(SCC(=O)NCc2ccco2)s1,i,4,6,·,19,-6,-7,0,
O=C(NCc1ccc2c(c1)OCO2)c1ccc2c(c1)N(Cc1c(F)cccc1Cl)C(=O)CS2,i,-3,-19,1,-4,-15,-8,-4,
Cc1ccc(S(=O)(=O)/C(=C/Cl)NC(=O)c2ccccc2)cc1,i,-12,-4,·,24,-8,-7,35,
Cc1ccc2nc(-c3ccccn3)c(NC3CCCC3)n2c1,i,3,-9,-60,-16,25,37,29,
CC(=O)Cc1ccccc1OCC(=O)O,i,8,5,-19,-88,11,-11,-9,
COc1cccc(C(C)NC(=O)Nc2ccccc2Cl)c1 (stereo unspecified),·,-2,-11,·,10,-6,-5,-7,
COc1ccc(N2CCN(S(=O)(=O)c3c(C(=O)N4CCOCC4)c(C)n(C)c3C)CC2)cc1,i,0,2,-9,-7,-1,4,0,
CC(C)C[C@H](NC(=O)c1nc[nH]c1C(=O)N1CCC(C)CC1)C(=O)OC(C)(C)C,i,-2,3,-19,4,5,-11,0,
CCc1ccc([C@H]2C(C(=O)O)=C[C@@H](CC3CCCC3)N2S(=O)(=O)c2ccc(C)cc2)cc1,·,5,1,-9,-8,·,·,·,
CCOc1cc(-c2c(C#N)c(N)nc3c2CCCC3)ccc1O,i,5,-8,-24,·,7,2,·,
CCOC(=O)c1sc(NCC2CCCO2)nc1C (stereo unspecified),i,4,0,14,·,-4,58,-15,eIF4H inh retest=-5;PABP FP inh retest=2
CCCOc1ccc(C2C(C(=O)c3ccco3)=C(O)C(=O)N2CCCn2ccnc2)cc1OC (stereo unspecified),·,-2,1,-3,-19,·,·,·,
Cc1cnc2c(c1)C(=O)c1ccccc1-2,i,0,1,-1,-9,5,4,0,
COc1cc(C(=O)Nc2nccs2)cc(OC)c1OC,i,1,-1,-17,·,-5,-5,-10,
Cc1ccccc1Cn1cc(/C=N/n2cnnc2)c2ccccc21,i,5,-12,-25,-151,-2,-5,13,
Nn1cnnc1N/N=C/c1ccccc1C(F)(F)F,i,2,2,-25,-6,8,6,-4,
C=CCNC(=O)NC(=O)COC(=O)/C(C#N)=C/c1ccc(OC)cc1,i,-21,3,·,-14,10,-7,-11,

# Next records follow:
SMILES,Rce1 inhib,MT1-MMP act inh,MT1-MMP act inh RFP,UUG fidelity,HIV Env fusion,PABP FP inh,eIF4H inh,CSC inhib,others
Cn1cc(S(=O)(=O)N2CCOCC2)cc1C(=O)NCc1ccccc1Cl,i,-1,5,-3,-34,2,-10,·,
CCC(=O)N1CCCC(C)(C(=O)Nc2nccc3ccccc23)C1 (stereo unspecified),·,-7,0,-15,-105,·,·,·,
CCOP(=O)(OCC)C(C)(C)NC(=O)Nc1ccc(Cl)c(Cl)c1,i,-1,-6,-10,2,-1,-2,2,
CC(C)(C)c1cc(C(F)(F)F)c(C#N)c(=O)[nH]1,?,10,0,-10,-28,7,-5,-12,
COc1ccc(CNC(=O)N2CCN(c3ccc(F)cc3)CC2)cc1Cl,i,4,-3,·,-6,-13,-8,-5,
CCn1cc(S(=O)(=O)N2CCN(Cc3cccc(Cl)c3)CC2)cn1,i,-2,2,·,4,-7,7,-3,
O=C(Nc1cc(S(=O)(=O)Nc2ccccc2F)ccc1Cl)c1ccc(F)cc1F,·,4,4,·,5,·,·,26,
CCc1ccc(NC(=O)CSc2nc3ccsc3c(=O)n2CCCCCC(=O)O)cc1,i,2,0,·,3,9,-1,-7,
CC(=O)N1CCCc2ccc(NS(=O)(=O)c3ccc(C)c(C)c3)cc21,i,1,-19,16,2,3,-14,-2,
COc1ccc(C(=O)N/N=C(\C)CC(=O)Nc2ccc3ccccc3c2)c(OC)c1,i,1,0,-7,-4,1,-6,-6,
COc1cc(CNCCN(C)C)ccc1OCc1c(F)cccc1Cl,i,8,3,-9,14,-3,-7,-12,
CNc1c(N=Cc2cccnc2)c(=O)n(C)c(=O)n1C,i,1,6,·,9,8,13,-3,
Nc1c(C(=O)NC2CC2)sc2nc3c(c(-c4ccco4)c12)CC/C3=C/c1ccco1,·,-1,-3,·,·,1,94,-1,eIF4H inh retest=44;PABP FP inh retest=9
CC(NC(=S)N1CCOCC1)c1ccccc1 (stereo unspecified),i,5,5,-19,0,-8,1,-4,
CCC1=C2CC[C@H]3C(=O)N(c4ccccc4)C(=O)[C@H]3[C@H]2[C@@]2(C)C(=NCC(=O)OC)OC(=O)N2C1=O,·,5,1,-30,7,9,-4,5,
CC1=C(C(=O)N2CCCCCC2)CC(CC(=O)NCCCCc2ccccc2)C(=O)N1Cc1ccccc1 (stereo unspecified),·,3,-7,-8,1,·,·,·,
CCOc1c2ccc(C(=O)NCc3ccc(OC(F)(F)F)cc3)cc2nn1CC,i,-3,3,-3,-13,2,8,1,
CC(NC(=O)c1cc2ccccc2oc1=O)c1ccccc1 (stereo unspecified),i,-4,-3,-12,-8,2,-7,-5,
O=C(c1ccccc1F)N1CCN(C2CCC(c3ccccc3)CC2)CC1 (stereo unspecified),i,2,-4,-8,-9,1,10,44,
COc1cccc(C(=O)Nc2nnc(-c3cccs3)s2)c1,i,0,0,-16,·,7,-2,-16,
COc1ccc(-n2c(=S)[nH]c3sc4c(c3c2=O)CCc2ccccc2-4)cc1,i,·,·,·,·,-4,7,-8,
O=c1oc(CCCO)cc2ccc(C#CC3(O)CCCCC3)cc12,·,6,-1,-6,14,·,·,0,
CCOC(=O)[C@H]1[C@H]2COc3ccc(Cl)cc3[C@@H]2N2C(=O)c3cc(F)ccc3NC(=O)[C@@]12C,·,-1,-5,-4,·,·,·,-12,
COc1ccccc1N1CCN(C(=O)CSc2nc(N)cc(=O)[nH]2)CC1,i,-1,-6,11,-63,4,1,-17,
O=C(O)Cn1c(=O)c2c3c(sc2n(Cc2ccccc2F)c1=O)CCCC3,i,0,-2,-10,1,12,-8,1,

# The results go on:
SMILES,Rce1 inhib,MT1-MMP act inh,MT1-MMP act inh RFP,UUG fidelity,HIV Env fusion,PABP FP inh,eIF4H inh,CSC inhib,others
CCC(NC(=O)NCCCn1ccnc1)(C(F)(F)F)C(F)(F)F,i,-3,1,-13,·,-5,2,·,
CCC(=O)c1ccc(OCC(O)CN2CCN(c3cccc(C(F)(F)F)c3)CC2)cc1 (stereo unspecified),i,10,-1,3,·,-3,-15,16,
COc1ccccc1CNC(=O)c1nn(-c2ccc(C)cc2)c(=O)c2c1c1ccccc1n2C,i,-5,-1,-7,9,-2,-2,0,
C=CC[C@@H](CC(=O)N[C@@H](CO)Cc1ccccc1)C(=O)N[C@H](COC(=O)[C@@H](CC=C)Cc1ccc(F)cc1)C(C)(C)C,·,-2,-11,-4,-11,·,·,5,
CCOC(=O)C1(C)CCCN(C(=O)c2ccccc2F)C1 (stereo unspecified),·,1,1,-15,6,·,·,·,
Cc1cc(Oc2ccc3ccccc3c2)nc(SCC(=O)c2ccccc2)n1,i,-21,-2,-15,27,14,3,40,
COc1ccc(OCc2cc(C(=O)NCC3CCOCC3)no2)c(Cl)c1,i,3,4,-11,-26,0,-4,8,
C/C(=N\Nc1ccc(S(=O)(=O)N2CCOCC2)cc1[N+](=O)[O-])C(C)C,i,3,-6,-8,-14,-1,-3,-5,
Cc1ccc(NC(=O)CCc2ccc(S(=O)(=O)N3CCOCC3)cc2)c(C)c1,i,2,2,2,-36,-14,4,-13,
CC1Sc2ccc(C(=O)Nc3ccc(S(=O)(=O)N(C)C)cc3)cc2NC1=O (stereo unspecified),i,-6,-10,9,-1,·,·,1,
COC(=O)c1ccc(C(=S)N2CCOCC2)cc1,i,3,1,-21,·,1,-2,13,
Nc1nc(COC(=O)CCC(=O)c2ccccc2)nc(Nc2ccccc2)n1,·,2,6,-13,-7,·,·,·,

# An excerpt from above in order of SMILES length, rising.
SMILES,Rce1 inhib,MT1-MMP act inh,MT1-MMP act inh RFP,UUG fidelity,HIV Env fusion,PABP FP inh,eIF4H inh,CSC inhib,others
COC(=O)c1ccc(C(=S)N2CCOCC2)cc1,i,3,1,-21,·,1,-2,13,
CCOC(=O)C1(C)CCCN(C(=O)c2ccccc2F)C1 (stereo unspecified),·,1,1,-15,6,·,·,·,
CCC(NC(=O)NCCCn1ccnc1)(C(F)(F)F)C(F)(F)F,i,-3,1,-13,·,-5,2,·,
COc1ccc(OCc2cc(C(=O)NCC3CCOCC3)no2)c(Cl)c1,i,3,4,-11,-26,0,-4,8,
Cc1cc(Oc2ccc3ccccc3c2)nc(SCC(=O)c2ccccc2)n1,i,-21,-2,-15,27,14,3,40,
Nc1nc(COC(=O)CCC(=O)c2ccccc2)nc(Nc2ccccc2)n1,·,2,6,-13,-7,·,·,·,
COc1ccccc1N1CCN(C(=O)CSc2nc(N)cc(=O)[nH]2)CC1,i,-1,-6,11,-63,4,1,-17,
O=C(O)Cn1c(=O)c2c3c(sc2n(Cc2ccccc2F)c1=O)CCCC3,i,0,-2,-10,1,12,-8,1,
Cc1ccc(NC(=O)CCc2ccc(S(=O)(=O)N3CCOCC3)cc2)c(C)c1,i,2,2,2,-36,-14,4,-13,
C/C(=N\Nc1ccc(S(=O)(=O)N2CCOCC2)cc1[N+](=O)[O-])C(C)C,i,3,-6,-8,-14,-1,-3,-5,
COc1ccccc1CNC(=O)c1nn(-c2ccc(C)cc2)c(=O)c2c1c1ccccc1n2C,i,-5,-1,-7,9,-2,-2,0,
C=CC[C@@H](CC(=O)N[C@@H](CO)Cc1ccccc1)C(=O)N[C@H](COC(=O)[C@@H](CC=C)Cc1ccc(F)cc1)C(C)(C)C,·,-2,-11,-4,-11,·,·,5,
